Assay outcomes deposited in PubChem BioAssay by Fisher Drug Discovery Resource Center.
NPYLR7 ag – mosquito NPYLR7 agonism; HEK293T NPYLR7/Galpha15, GCaMP6s calcium fluorescence; 270,000 compounds, 0.15% hits; activation, % at 10 µM; in the data active means activation above about 40%;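 further: 0% = vehicle and 100% = reference agonist at the receptor; some compounds past the cut are filed as inactive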
NPYLR7 ag max-min – further read-out of NPYLR7 ag, marked with its call; activation, %; measured here: Max-Min RFU normalised activation; some inactives read as strong as hits;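 span of the calcium signal over five minutes; 0% = vehicle and 100% = native peptide agonist; compound fluorescence can raise it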
* marks the source's active call; other numbers are inactive results; & = joins results of further samples. An excerpt; the hit share may differ from the screen's.

| SMILES | NPYLR7 ag | NPYLR7 ag max-min |
| --- | --- | --- |
| CCc1ccc(NC(=O)CN2CN(c3ccccc3)C3(CCN(C(=O)c4ccc(Cl)cc4)CC3)C2=O)cc1 | 22 | 18 |
| CCOc1ccc(/C=N\n2c(C)csc2=Nc2ccc(C)cc2)c(O)c1 | 2 | 2 |
| O=C(c1ccccc1C1CCNC1)N1CCCN(c2ncccn2)CC1 (configuration not stated) | 0 | 0 |
| Cc1cc2oc3c(c(=O)c2cc1Cl)C(c1ccncc1)N(c1nc(C)c(C)s1)C3=O (configuration not stated) | 8 | 3 |
| Cc1nc(SCC#N)c2c3c(sc2n1)CCCC3 | 4 | 5 |
| CC(=O)c1coc2c(Cl)c(Cl)c(O)cc12 | 9 | 4 |
| O=S(=O)(c1ccc(NC(=S)NCC2CCCO2)cc1)N1CCOCC1 (configuration not stated) | 6 | 1 |
| CCCCCNC(=O)CCN(Cc1ccccc1)c1nc(Cc2ccccc2)ns1 | -3 | 1 |
| CC1CCCCC1NC(=O)COC(=O)c1cccnc1-n1cncn1 (configuration not stated) | 12 | 10 |
| COc1ccc(-c2ccc(=O)n(CCNS(=O)(=O)c3cccs3)n2)cc1 | 0 | -1 |
| N#Cc1cc([N+](=O)[O-])ccc1N1CCCC1 | 6 | 0 |
| C=CCSc1nc(-c2ccc(OC)cc2)cc(-c2ccc(OC)cc2)c1C#N | -1 | -6 |
| Cn1nc(-c2cc(O)cc(CCC3CCCCN3)c2)nc1N1CCCCC1 (configuration not stated) | 2 | -4 |
| COc1ccc(-c2cc(C(F)F)c(C#N)c(SCC(C)=O)n2)cc1OC | 7 | 13 |
| CC(=O)Nc1ccc(NS(=O)(=O)c2cccc(F)c2)c(C(F)(F)F)c1 | 5 | 4 |
| CC(C)N(CC(=O)N1CC(=O)N(c2ccc(Cl)cc2)C1)C(=O)c1ccc(C(C)(C)C)cc1 | 19 | 25 |
| CCC(=O)Nc1ccc(N(C)C)c(CN(C(C)C(C)C)S(=O)(=O)c2cccc(Cl)c2)c1 (configuration not stated) | 2 | 4 |
| CC(C)NS(=O)(=O)c1ccc(C(=O)N2CCC=C3OC(=O)C=C32)cc1 | 3 | 2 |
| Cc1cccnc1CC(C)NC(=O)c1ccc2oc(-c3cccc(F)c3)nc2c1 (configuration not stated) | -6 | -9 |
| COCC(=O)Nc1ccc(N(C)C)c(CN(Cc2cccc(F)c2)C(=O)c2cccc(C)c2)c1 | 3 | 13 |
| COC(=O)[C@]1(C)C[C@H](C(=O)N(C)Cc2ccon2)[C@H](c2ccccc2Cl)N1C | 0 | -3 |
| O=C(c1ccc[nH]1)N1CCOC(CC(c2ccccc2)c2ccccc2)C1 (configuration not stated) | 3 | -3 |
| Cc1cc(C(=O)N2CCCC3(CC2)CN(C)C(=O)O3)c2c(C)nn(C)c2n1 (configuration not stated) | -5 | -6 |
| CCOc1ccc(N2CC(NC(=O)Nc3cc(C)on3)CC2=O)cc1 (configuration not stated) | 1 | -2 |
| COc1ccc(CCNC(=O)N2CCN(S(=O)(=O)c3ccccc3F)CC2)cc1OC | 2 | -5 |
| CC1CCCN(Cc2nc3c(c(=O)n(C)c(=O)n3C)n2CCCc2ccccc2)C1 (configuration not stated) | 1 | 0 |
| COc1ccc(CN(CC(O)COc2ccccc2C)CC2CC2)cc1 (configuration not stated) | 20 | 19 |
| N#Cc1c(SCc2ccccn2)nc2c(c1-c1cccs1)CCCC2 | 4 | 4 |
| CC(=O)Nc1c(-c2cc(=O)oc3c(C)cc(C)cc23)oc2ccccc12 | -1 | -4 |
| O=C(NCc1cccnc1)c1cccnc1Nc1cccc(Cl)c1 | 2 | -1 |
| CN(C(=O)CSCC(=O)c1ccccc1)c1nccs1 | 12 | 6 |
| C=CCc1ccccc1OCCN(C)C(=O)c1cnccc1C | 5 | 4 |
| O=C(c1coc(CN2CCN(C/C=C/c3ccccc3)CC2)n1)N1CCSCC1 | 3 | 0 |
| O=C(O)CC(NC(=O)c1ccc(-c2ccc(F)cc2)o1)C(=O)O (configuration not stated) | 8 | 4 |
| COc1ccc(/C=C/CN2CCC(CO)(Cc3ccccc3Cl)CC2)cc1 | 5 | 2 |
| CCCNc1nc(SCC)nc2c1cnn2CCNC(=O)c1c(F)cccc1F | -3 | -5 |
| COCC1(C(=O)N2CCC(C(O)c3cccs3)CC2)CCC1 (configuration not stated) | 10 | 5 |
| COc1ccccc1NC(=O)c1cc(O)cc(OCC(F)(F)F)c1 | 18 | 15 |
| COCc1nc(-c2ccc(S(N)(=O)=O)cc2)cs1 | 2 | -1 |
| CCCNC(=O)N(CCN(C)C)Cc1nccn1Cc1ccccc1Cl | 5 | 6 |
| CC(=O)N(CC(C)C(=O)O)c1c(I)cc(I)c(N)c1I (configuration not stated) | 1 | -2 |
| CCOC(=O)c1cn[nH]c1S(=O)(=O)NCc1ccc(OC)cc1 | 4 | -1 |
| S=c1oc(-c2ccco2)nn1CN1CCOCC1 | -9 | -15 |
| COc1ccc(CCNC(=O)CN2CC3=C(C2=O)C(c2ccccc2C(F)(F)F)NC(=O)N3C)cc1OC (configuration not stated) | 1 | 6 |
| Cc1[nH]c2ccc(C(=O)N(C)Cc3ccco3)cc2c1C | 1 | 3 |
| COc1ccc(C2(C(=O)N3CCCC(O)(CO)C3)CC2)cc1 (configuration not stated) | -3 | -4 |
| CC1(C)CC(N2CCCCC2)=CC(=NCCCN2CCCCC2)C1 | -4 | -5 |
| CCOc1cccc2sc(N(CCn3nc(C)cc3C)C(=O)c3cc(C)on3)nc12 | -17 | -20 |
| COCCCNC(=O)c1nn(-c2ccccc2F)c(=O)n(C(C)c2ccccc2)c1=O (configuration not stated) | -1 | 1 |
| CCCC(O)c1nnc(Nc2cccc(Oc3ccccc3)c2)s1 (configuration not stated) | 7 | 4 |

Arranged by molar mass (ascending): part of the list above
| SMILES | NPYLR7 ag | NPYLR7 ag max-min |
| --- | --- | --- |
| CC(=O)c1coc2c(Cl)c(Cl)c(O)cc12 | 9 | 4 |
| N#Cc1c(SCc2ccccn2)nc2c(c1-c1cccs1)CCCC2 | 4 | 4 |
| Cc1cccnc1CC(C)NC(=O)c1ccc2oc(-c3cccc(F)c3)nc2c1 (configuration not stated) | -6 | -9 |
| CC(C)N(CC(=O)N1CC(=O)N(c2ccc(Cl)cc2)C1)C(=O)c1ccc(C(C)(C)C)cc1 | 19 | 25 |

Given field by field: two of the compounds above
> COc1ccc(CCNC(=O)N2CCN(S(=O)(=O)c3ccccc3F)CC2)cc1OC
  NPYLR7 ag: 2
  NPYLR7 ag max-min: -5
> CC1(C)CC(N2CCCCC2)=CC(=NCCCN2CCCCC2)C1
  NPYLR7 ag: -4
  NPYLR7 ag max-min: -5

Additional entries:
smiles	NPYLR7 ag	NPYLR7 ag max-min
CCS(=O)(=O)Oc1cccc(CN(C(C)C)S(=O)(=O)c2ccc(OC)cc2)c1	-9	-12
COC(=O)c1cc(S(=O)(=O)NC2CCCCC2)cn1C	-2	-2
CCCCNC(=O)N(CCC)Cc1c(CC)nn(-c2ccc(F)cc2)c1N1CCN(C(C)C)CC1	11	21
COc1ccc(C(=O)N(Cc2nccn2Cc2ccccc2Cl)C(C)C)cc1	19	27
CN(Cc1nnc(-c2ccco2)o1)C(C(N)=O)c1cccc(F)c1 (configuration not stated)	3	1
Cn1ccnc1C(NC(=O)c1ccc(Cl)c(S(=O)(=O)N2CCCCC2)c1)c1cccc(F)c1 (configuration not stated)	2	3
CC(C)(C)NC1=NC(C(F)(F)F)(C(F)(F)F)NC(=O)N1	10	4
O=c1c(Cl)c(N2CCN(c3ccccc3)CC2)cnn1C1CCS(=O)(=O)C1 (configuration not stated)	-3	-3
NC(=O)c1csc(N2CCC(CO)(CC3CCCCO3)CC2)n1 (configuration not stated)	-3	-6
O=S(=O)(c1cccc(F)c1)N1CCN(Cn2nnc(-c3ccc(Cl)cc3)n2)CC1	7	14
CCCCNC(=O)N(CCOC)Cc1ccc(OC)c(OS(=O)(=O)c2cccc(C(F)(F)F)c2)c1	-15	-18
Cc1nnn(C23CC4CC(CC(NC(=O)[C@H](N)CC(C)C)(C4)C2)C3)n1	14&2	7&31
COc1ccc(CN=C2NN=C(c3ccc(Cl)cc3Cl)CS2)cc1	7	1
Cc1ccc(NC(=O)CSc2cn(CC(=O)N3CCCCCC3)c3ccccc23)cc1	-3	-6
Cc1cnc(C(=O)N2CCN(C(=O)c3cccc(Cl)c3Cl)CC2)cn1	1	2
O=C1NC(=O)C2(CCCCCC2)N1	3	3
OCCCNCc1cccc2ccccc12	-20	-24
CCN1CCN(c2nc3c(c(=O)[nH]c(=O)n3C)n2CCc2ccccc2)CC1	14	7
Cc1c(Cl)cccc1NC(=O)CC(=O)NC(C)c1ncn[nH]1 (configuration not stated)	-3	-3
Cc1cc(C(=O)Nc2cc(Cl)ccc2CS(C)(=O)=O)on1	1	-1
CSc1ccc(C(=O)CCC(=O)N2CCC3(CC2)CC(=O)c2ccccc2O3)cc1	-8	-8
COc1cc(C)ccc1OCC(=O)N1CCC(=O)Nc2ccccc21	11	5
CC(C)c1ccc(C(=O)N(Cc2ccco2)C(C)C(C)C)c(=O)n1C (configuration not stated)	13	13
CCOC(=O)N1CCC(N2CC(=O)N(CC3CCOCC3)CC(OCc3ccccn3)C2)CC1 (configuration not stated)	10	-5
CCOc1ccccc1OCc1nn2c(CC)nnc2s1	1	-3
C=CCNC(=O)COc1coc(CN2CCc3ccccc32)cc1=O	-2	28
CCOc1ccccc1C(=O)Nc1ccc(N2CCN(C(=O)c3cc(Cl)nc(OC)c3)CC2)nc1	-3	9
CCn1ccc2ccc(CN3CC(c4ccncc4)C3)cc21	16	9
COc1ccc(F)c(CN(C)C(C)c2ccncc2)c1Cl (configuration not stated)	2	1
COc1cc(-c2noc(CCN(Cc3ccccc3)CC(C)O)n2)cc(OC)c1OC (configuration not stated)	0	2
Cc1cccc(Cn2c(NCCCn3ccnc3)nc3c2c(=O)[nH]c(=O)n3C)c1	-7	-5
CC(C)Cc1cc(C(=O)N(C)Cc2nc(-c3ccccn3)no2)n(C)n1	25	17
COC(=O)CCn1c(=O)c2c(nc3n(-c4ccccc4)c(C)c(C)n23)n(C)c1=O	8	5
c1cc(C2=NNC(c3ccncc3)=NN2)ccn1	15	9
Cc1ccc(NC(=O)C(=O)N2CCOCC2)cc1Cl	-2	3
CCOc1ccc2nc(S(=O)(=O)NC(=O)C3(C)CCN3C(=O)c3cc(C)n(C)n3)sc2c1 (configuration not stated)	3	5
O=C(CSc1ccc2nnc(CCNC(=O)c3ccc(F)cc3)n2n1)Nc1ccccc1	-2	-10
O=C(CCCc1cn(S(=O)(=O)c2cccs2)c2ccccc12)N1CCCC1c1ccncc1 (configuration not stated)	-6	-10
COc1ccc(CC2CCN(C(=O)CCNc3ncccn3)CC2)cc1	6	5
O=S(=O)(NCCc1ccccn1)C1=Cc2ccccc2CC1	9	6
Cc1nn(C(C)(C)C)c(OC(=O)COc2ccc(Cl)cc2)c1S(=O)(=O)c1ccccc1	1	37
O=C(c1ccccc1C(F)(F)F)N1CCN(C2c3ccccc3CCc3ccccc32)CC1	18	-3
O=C1OC(/C=C/c2ccc(Cl)cc2Cl)=NC/1=C\c1ccco1	-8	-14
Cc1nnc(NC(=O)c2ccc(C3SCCS3)cc2)s1	3	-2
C=CCn1c(SCC(=O)NCCc2ccccc2)nc2sc3c(c2c1=O)CCCC3	-4	-7
CCOC(=O)Cn1c(C)c(C)n2c3c(=O)[nH]c(=O)n(C)c3nc12	-6	-8
CC(=O)OC(CN1CCCC1)Cn1c2ccccc2c2ccccc21 (configuration not stated)	3	25
C/C=C/CN1CCC=C(CN2CCC(NC(=O)COC)CC2)C1	2	0
CN/C(=C/[N+](=O)[O-])NCCSCc1ccc(CN(C)C)o1	0	-5
COCCCNC(=O)C(NC(=O)c1ccccc1C)C1CCN(S(=O)(=O)c2ccc(Cl)cc2)CC1 (configuration not stated)	19	21

Look-ups from above.
Under NPYLR7 ag, CC(=O)OC(CN1CCCC1)Cn1c2ccccc2c2ccccc21 (configuration not stated) has 3
Under NPYLR7 ag, O=C1OC(/C=C/c2ccc(Cl)cc2Cl)=NC/1=C\c1ccco1 has -8

More structures follow.
smiles	NPYLR7 ag	NPYLR7 ag max-min
CNC(=O)c1cccc(-c2cc(NCc3cccnc3)nc3[nH]ccc23)c1	3	4
COc1ccc2c(-c3c(-c4ccccc4)ncn3CCO)cn(C)c2c1	-2	-5
O=C(COc1ccc([N+](=O)[O-])cc1)NCC1CCCCC1	1	-1
CCCCCCCCCCSc1nc2c(c(=O)[nH]c(=O)n2C)n1CCOC	2	0
COc1ccccc1-n1c(SCc2nc(C(=O)NCCN3CCCC3)cs2)nnc1-c1ccncc1	20	23
O=C(CS(=O)(=O)C1CCCC1)N1CCN(CCO)CC1	5	0
Cc1cc(Cl)c(C)c(S(=O)(=O)Nc2ccc(NC(=O)C3CCCO3)cc2)c1Cl (configuration not stated)	-4	-7
Cc1ccccc1-c1cn[nH]c1C1CCN(c2ncccc2C(=O)O)CC1	11	7
O=C(CN1CCCC1)N1N=C(c2cccs2)CC1c1ccco1 (configuration not stated)	6	11
CC1C(OC(=O)c2nc3ncc(Br)cn3n2)CC2CC1C2(C)C (configuration not stated)	0	-3
C=CCN(Cc1nccn1Cc1c(F)cccc1Cl)S(=O)(=O)CC	18	20
COc1cc(C(=O)N2CCC2(C)C(=O)O)cc(OC)c1OC (configuration not stated)	1	0
FC(F)(F)c1csc(CCNc2ccccn2)n1	2	0
Cc1ccc(N2CC(C(=O)NC(C)c3ccccc3Cl)CC2=O)cc1 (configuration not stated)	19	13
